# Screening data (PubChem)
# PINK1 modulator: changes PINK1 expression | PINK1 immunofluorescence, high-content cytometry, 24 h | Potency, µM (titrated, usually from 76.6 µM), without a hit: at the top dose activation (PINK1 increase), most hits filed as activators | AID 624263 | 410,000 tested, 0.2% active; active = well fitted activation curve with a large enough effect; inconclusive = small, poorly fitted or top-dose-only effect; inactive = flat fitted curve, though single readings scatter; cell line not stated here;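 further: potency means the concentration at half of the fitted maximal effect; % of control where 0% means no effect; nearly all actives have a fitted effect of over 65% in size; a mitochondrial uncoupler was the plate control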
#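 Measures PINK1 amount and localization on or inside mitochondria by immunofluorescence. Stable cells get compounds at 5 concentrations for 24 hours before fixation and staining; CCCP controls included.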
# Sfp inh: blocks B. subtilis Sfp PPTase activity. 310,000 tested, 3.5% active. Biochemical Sfp PPTase activity, qHTS. Potency, µM, for the others: max response, negative = inhibition, actives largely listed as inhibitors. Q9F4F7. AID 1490; active means well fitted inhibition curve with a large enough effect; inconclusive means small, poorly fitted or top-dose-only effect, or another doubt; inactive means no such curve, though single readings can be large or run the other way;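 further: the enzyme is Sfp with the accession as filed and its product quenches rhodamine fluorescence; potency means the concentration at half of the fitted maximal effect; 0% = enzyme reaction without inhibitor and -100% = no enzyme wells; top concentration of the series not given in the record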
#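 With Hepes-Na pH 7.6 buffer containing 10 mM MgCl2, Sfp (15 nM) modified BHQ-2-YbbR (12.5 uM) using rhodamine-CoA (5 uM). Two reads 30 minutes apart at 525/598 nm yielded each well's rate.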
# gsp agonist: agonists of gsp mutant (McCune-Albright syndrome); gsp mutant cells, cAMP HTRF, 30 min; control for the full effect not named in the record; Potency, µM (titrated, usually from 76.9 µM), for inactives: at the highest dose activation (cAMP increase), actives largely listed as activators; 340,000 tested, 0.13% active; active = well fitted activation curve with a large enough effect; inconclusive = small, poorly fitted or top-dose-only effect, or another doubt; inactive = no such curve, though single readings can be large or run the other way; cell line not stated here;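 further: phosphodiesterase inhibitor Ro 20-1724 added with compounds to block cAMP breakdown; potency means the concentration at half of the fitted maximal effect; nearly all actives have a fitted effect of over 60% in size; about a fifth of the inactives were tested at one dose only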
#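 Cells in DMEM/10% FBS with G418 were pretreated with compounds in DMSO plus […] (300 uM stock) for 30 min at 37C. cAMP was measured by HTRF (cAMP-d2 plus anti-cAMP antibody-K) after 30 min at room temperature.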
# gsp antag: gsp mutant antagonism; gsp-mutant cells, cAMP HTRF, 30 min; control for the full effect not named in the record; Potency, µM (doses to about 76.9 µM), inactives show at the top dose activity change, negative = inhibition, most hits filed as inhibitors; 340,000 tested, 0.4% active; active = falling curve of any shape with a large fitted effect; inconclusive = falling curve, mostly with a smaller effect; inactive = flat or rising curve; cell line not stated here;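 further: intracellular cAMP measured with PDE inhibitor Ro 20-1724 present during compound exposure; potency means the concentration at half of the fitted maximal effect; on the % scale 0 is the no-effect control and ±100 the full control effect; nearly all actives have a fitted effect of over 65% in size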
#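 G418-selected cells were plated in DMEM/10% FBS for 16-24 h at 37C, then treated with compounds plus the PDE inhibitor […] (300 uM solution added) for 30 min at 37C. Intracellular cAMP was measured by HTRF after 30 min lysis at room temperature.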
# D2 ag: agonists of human D2 dopamine receptor (beta-arrestin). P14416. DiscoveRx PathHunter D2 beta-arrestin, luminescence, 90 min; 100% = 57 uM dopamine signal. activation, % (test concentration not listed). 360,000 tested, 0.084% active; in the data active = activation above about 40%; inconclusive = about 15% to 40%; inactive = below about 15%; further: compound concentration not given in the record; the text of the record calls up to 30% inactive
# Target sequence (P14416 whole entry, looked up): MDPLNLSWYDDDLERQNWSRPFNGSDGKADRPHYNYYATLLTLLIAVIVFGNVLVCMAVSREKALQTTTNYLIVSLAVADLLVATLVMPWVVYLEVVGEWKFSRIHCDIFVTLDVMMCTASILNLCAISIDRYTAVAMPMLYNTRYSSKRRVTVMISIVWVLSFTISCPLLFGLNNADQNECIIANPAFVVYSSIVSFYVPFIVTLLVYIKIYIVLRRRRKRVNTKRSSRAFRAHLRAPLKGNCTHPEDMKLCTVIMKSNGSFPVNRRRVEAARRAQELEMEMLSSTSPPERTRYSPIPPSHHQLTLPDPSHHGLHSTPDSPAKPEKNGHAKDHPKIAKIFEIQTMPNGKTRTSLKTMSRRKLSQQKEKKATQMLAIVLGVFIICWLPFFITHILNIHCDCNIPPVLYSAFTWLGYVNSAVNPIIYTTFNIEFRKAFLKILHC
#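 Agonist mode: compounds alone added to overnight-plated D2 PathHunter cells for 90 min at 37 C, with 57 uM final dopamine (EC100) defining full response. Beta-arrestin recruitment detected by chemiluminescent reagent, read after 1 h at ambient temperature.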
# ClpP mod: qHTS Assay for Activators of ClpP | 340,000 tested, 1.9% active | purified B. subtilis ClpP, FRET peptide cleavage, 20 min | ATP-dependent Clp protease proteolytic subunit (Bacillus subtilis (strain 168)), P80244 | Potency, µM (doses to about 57.5 µM), inactives show at the top dose activity change, negative = active; active = well fitted falling curve with a large enough effect; inconclusive = small, poorly fitted or top-dose-only effect; inactive = no such curve, though single readings can be large or run the other way; further: potency means the concentration at half of the fitted maximal effect; the source files actives as falling curves though it sought activators and does not explain the sign; nearly all actives have a fitted effect of over 65% in size; many hits overshoot -100%
# Target sequence (P80244 whole entry, looked up): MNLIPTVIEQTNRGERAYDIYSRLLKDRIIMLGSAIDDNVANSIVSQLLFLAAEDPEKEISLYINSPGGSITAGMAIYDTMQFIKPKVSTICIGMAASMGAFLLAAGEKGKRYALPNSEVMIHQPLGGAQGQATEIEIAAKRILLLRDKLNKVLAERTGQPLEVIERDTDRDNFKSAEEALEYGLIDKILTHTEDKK
#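 FRET quenching reversal measured ClpP activation: 10 microg/mL B. subtilis ClpP at pH 8 with the FRET-FV decapeptide, read at 430 nm after 320 nm excitation. The 20-min minus 0-min signal was scaled between DMSO/no-enzyme wells and ADEP (5.8 microM final).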
# Menin-MLL FL inh: menin-MLL binding inhibition, fluorescein peptide; 290,000 tested, under 10 active; Fluorescence polarization, fluorescein-MLL peptide displacement from menin; FP activity change, % at 61.4 µM; inconclusive = falling polarisation curve, or a change in total fluorescence; inactive = total fluorescence flat and polarisation flat or rising; no compound was filed as active; the % refers to the polarisation; negative = inhibition;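 further: % of control where 0% means no effect; inhibitors lower the polarisation; unlabelled MLL peptide was the positive control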
# The depositor's hits bear a star; ? = inconclusive; . = not tested or not shown; & = joins results of further samples; [ ] = remark or other dose.
SMILES,PINK1 modulator,Sfp inh,gsp agonist,gsp antag,D2 ag,ClpP mod,Menin-MLL FL inh
CCOc1ccc(NC(=O)N(C2CCCCC2)C2CCN(C(C)=O)CC2)cc1,5.2%,.,-14%,5%,-1.8,1.1%,.
Cc1ccc(SCCN2CCC(C)CCC2=O)cc1 (stereo unspecified),1.7%,9%,.,1%,0.7,1.7%&0.1%,0.1
Cc1cc(C)nc(SCc2ccc(C(=O)O)o2)n1,0.7%,-7%,-11%,-8%,0.3,-0.5%,-2.6
O=C(Cc1ccccc1)N/N=C/c1cc(Br)cc(Br)c1O,0.4%,4%,5%,-12%,-6.4,-14%,15
CCC(NC(=O)c1cc(COc2ccc(OC)cc2Cl)on1)c1ccncc1 (stereo unspecified),-1.5%,11%,24%,-27%,-5.2,-1.2%,.
Cc1cc(C)c2c(N)c(C(=O)c3cccc(Cl)c3)sc2n1,10%,3%,-4%,-9%,-5.5,64%,6.1
COCCCNC(=O)c1cccc(C(=O)NCCCOC)c1,-3.2%[38.3 µM],7%,1%,6%,-1.9,-2.7%,2.3
COc1ccc(C(c2nnnn2CC2CCCO2)N2CCN(c3cccc(C)c3C)CC2)cc1 (stereo unspecified),0.9%,3%,25%,-12%,-4.9,3.9%,3.8
NC(=O)C(=O)N/N=C/c1c[nH]c2ccc(Br)cc12,2.2%,14%,-8%,7%,-3.9,0.4%,-0.9
Cc1cc(N2CCCC2)nc(SCC(=O)c2ccccc2)n1,1.0%,12%,5%,11%,-0.6,-4.2%,5.3
CN(C(=O)COC(=O)CN1C(=O)c2ccccc2C1=O)c1c(N)n(Cc2ccccc2)c(=O)[nH]c1=O,-1.3%,.,11%,7%,-3.3,0.2%,.
N#CC(C#N)=NNc1ccc(S(=O)(=O)N2CCCC2)cc1,6.4%,-5%,-2%,-33%,-2.2,-1.1%,.

# 3 structures from above, sorted by count of non-hydrogen atoms, highest first:
SMILES,PINK1 modulator,Sfp inh,gsp agonist,gsp antag,D2 ag,ClpP mod,Menin-MLL FL inh
CN(C(=O)COC(=O)CN1C(=O)c2ccccc2C1=O)c1c(N)n(Cc2ccccc2)c(=O)[nH]c1=O,-1.3%,.,11%,7%,-3.3,0.2%,.
CCC(NC(=O)c1cc(COc2ccc(OC)cc2Cl)on1)c1ccncc1 (stereo unspecified),-1.5%,11%,24%,-27%,-5.2,-1.2%,.
O=C(Cc1ccccc1)N/N=C/c1cc(Br)cc(Br)c1O,0.4%,4%,5%,-12%,-6.4,-14%,15

# (more compounds)
SMILES,PINK1 modulator,Sfp inh,gsp agonist,gsp antag,D2 ag,ClpP mod,Menin-MLL FL inh
Cc1cccc(C)c1NC(=O)C(=O)NCC1CCCN1S(=O)(=O)c1ccccc1 (stereo unspecified),2.5%,.,-2%[15.4 µM],-6%,-3.4,.,.
CCOc1ccc(-c2nc(N)ncc2Oc2cccc(OC)c2)c(O)c1,2.9%,-13%,?,2%,-3.1,0.3%,5.9
Clc1ccccc1-c1cc2nc(NCc3ccco3)ccn2n1,4.4%,.,.,.,-4.4,-3.8%,.
CCCOc1ccc(C(=O)NNC(=S)NC(=O)c2cc(-c3ccccc3)nc3ccccc23)cc1,1.7%,0%,-14%,1%,-2.8,0.8%,-0.6
COc1ccc(-c2cc(NC=O)c3ncc(-c4cc(OC)c(OC)c(OC)c4)n3c2)cc1,5.0%,.,.,.,-5.8,-27%,.
C=CCSC1=C(C#N)C(c2ccc(OCC)cc2)CC(=O)N1 (stereo unspecified),0.0%,79µM*,?,-7%,-11,1.5%,1.1
N/C(=N\c1nc(CSc2ccccn2)cc(=O)[nH]1)Nc1ccc(Cl)cc1Cl,2.9%,9%,-4%,-21%,-2.5,-3.6%,0.9
Cc1onc(-c2ccccc2)c1C(=O)Nc1ccc2c(c1)OCO2,4.0%[38.3 µM],-7%,16%,10%,-0.8,0.8%,1.4
Cc1ccc(OC(=O)C2CSC3(C)CCC(=O)N23)c(Br)c1 (stereo unspecified),2.1%,.,10%[15.4 µM],7%,-6.6,.,.
COc1ccc(-c2oc3cccnc3c2C#CCO)cc1,-1.4%,6%,.,-14%,-1.3,3.9%,-0.4
Cc1ccc(NC(=O)c2cc(-c3cc(Cl)ccc3C)n[nH]2)cc1NS(C)(=O)=O,0.6%,.,.,.,4.2,0.5%,.
CCn1c(=O)cc(OCC(=O)NCCCN2CC(C)CC(C)C2)c2ccccc21 (stereo unspecified),-0.2%[38.3 µM],15%,4%,6%,-1.6,-7.7%,0.0
Oc1c(C(Nc2nccs2)c2ccc(C(F)(F)F)cc2)ccc2cccnc12 (stereo unspecified),3.3%,-3%,23%[15.4 µM],2%,1.5,.,0.7
O=C(O)Cn1nncc1-c1ccc(C(F)(F)F)cc1,1.0%,.,.,.,-3.3,2.1%,.
Cc1cc2n(n1)SC(Nc1cc(Cl)ccc1Cl)N2 (stereo unspecified),-0.2%,2%,0%,8%,-4.5,0.6%,-0.5
Cc1ccc(NC(=O)c2ccc3nsnc3c2)c(C)c1,1.3%,1%,23%,-8%,-6.9,-1.0%,-5.6
Cc1cc([N+](=O)[O-])nn1CCCC(=O)N1CCN(c2ccccc2)CC1,2.7%,4%,1%,9%,-6.3,0.3%,2.3
CC(C)n1ncc2c(C(=O)Nc3cccc(C#N)c3)cc(C3CC3)nc21,?,.,-3%,?,14,-5.4%,.
CC1(C)C2CCC1(CS(=O)(=O)N1CCN(c3ccccc3F)CC1)C(=O)C2 (stereo unspecified),-1.4%,-8%,?,-2%,3.1,0.7%,1.9
COc1ccc(Br)cc1CN1CCC(N2CCCC2)CC1,3.2%,?,-16%,6%,-4.6,-0.2%,0.3
O=S(=O)(c1ccccc1)[C@@]1(c2ccc(Br)cc2)C[C@@H]2ON=C(c3cccc(Br)c3)[C@@H]2C1,-0.7%,.,.,-7%,2.0,-0.3%,.
CC(=O)Nc1ccc2nc(SCC(=O)O)sc2c1,1.7%,-18%,12%,0%,-0.7,-3.3%,4.4
COc1ccccc1CCNC(=O)CCn1c(=O)oc2ccccc21,-1.3%,0%,?,6%,-5.0,-0.9%,-1.4
CC(C)c1ccc(/C=C/C(=O)NNC(=O)c2cccnc2)cc1,-1.3%,23%,7%,-3%,-2.3,-3.1%,-5.1
Cc1ccc(-c2ccnc3nc(-n4cccc4)nn23)o1,1.4%,-2%,3%[15.4 µM],-18%,-0.3,.,-3.4
Cc1ccc(N2CN=c3s/c(=C\c4ccccn4)c(=O)n3C2)cc1,8.7%[38.3 µM],2%,-40%[inhibitor],-7%,-3.5,0.9%,0.5
COc1ccc(NC(=O)CSc2ccc(NC(C)=O)cc2)cc1S(=O)(=O)N1CCCCC1,0.2%,14%,1%[15.4 µM],-25%,1.0,-0.8%,4.7
Cc1ccc(S(=O)(=O)CCC(=O)N2CCc3ccccc32)cc1,1.8%,6%,-22%,-5%,1.1,-1.2%,-0.3
Cc1ccc(/C=C/C(=O)c2ccccc(=O)c2O)c(C)c1,-1.0%,?,-8%[15.4 µM],-22%,-8.0,0.0%,20
COc1cc(OC)cc(C(=O)NNS(=O)(=O)c2ccc(F)cc2)c1,-1.2%,-1%,4%,-1%,-3.7,-4.2%,1.5
COc1cc(/C=N/NC(=O)c2ccccc2NS(=O)(=O)c2cccs2)ccc1O,-4.5%,.,-11%[15.4 µM],-12%,2.0,.,.
Cc1ccc(S(=O)(=O)c2nc(S(C)(=O)=O)sc2N2CCC(C(N)=O)CC2)cc1,-0.5%,21%,-23%,10%,2.3,1.9%,0.9
COc1cc(OC)cc(C(=O)OCC(=O)NC2CCCCCC2)c1,5.6%,.,20%,5%,-0.2,-2.6%,.
COC(=O)c1ccc(CNC(=O)COC(=O)C2CC3C=CC2C3)cc1 (stereo unspecified),0.5%,16%,-1%[15.4 µM],1%,2.1,.,-0.4
COc1ccc(NC(=O)CNc2cc(S(=O)(=O)N3CCOCC3)ccc2N2CCOCC2)c(OC)c1,2.6%,.,-7%,4%,-0.6,-5.7%,.
CC(C)Oc1ccc(C2CC(=O)N(C)C2=O)cc1 (stereo unspecified),-0.5%,6%,5%,6%,0.4,1.5%,6.2
CNc1ccccc1C(=O)OCC(=O)c1ccc(F)cc1,-0.7%,-5%,0%[15.4 µM],2%,-2.2,-2.1%,-1.6
Cc1ccc(Cl)cc1NC(=O)NCCN1CCCCC1,-1.3%,15%,5%[15.4 µM],9%,0.6,0.5%,-2.8
COc1ccc(-c2csc(N=C(N)N)n2)cc1,0.9%,-2%,19%,1%,-1.9,-1.1%,-6.1
O=C1C=C(c2ccccc2)CC(c2cccs2)C1n1cnc([N+](=O)[O-])c1 (stereo unspecified),4.5%,-15%,-17%,-4%,1.0,0.6%,6.2
OCCC1CN(Cc2nc(-c3ccccc3)cs2)CCN1CCc1ccccc1 (stereo unspecified),1.9%,4%,?,-9%,-1.5,-0.7%,1.3
Cn1nnnc1SCC(=O)Nc1nc2ccccc2s1,3.7%,8%,17%[15.4 µM],.,2.9,.,1.0
COc1cccc(S(=O)(=O)N(C)C[C@@H]2OCc3cn(nn3)CCCC(=O)N([C@@H](C)CO)C[C@H]2C)c1,-0.5%,.,-79%[inhibitor],.,-3.8,-1.9%,.
COc1ncccc1C(=O)N1CCCC(N2CCN(c3ccc(F)cc3)CC2)C1 (stereo unspecified),-0.4%,.,-2%,-3%,0.9,-3.5%,.
Cc1ccc(C23CC4CC(CC(C(=O)NN)(C4)C2)C3)cc1,1.2%,16%,-21%,-1%,-5.2,-3.1%,1.5
CCOc1ccc(N2C(=O)CC(NC3CCCCNC3=O)C2=O)cc1 (stereo unspecified),0.9%,3%,-3%,6%,-2.6,1.0%,1.0
COc1ccccc1C(=O)COC(=O)c1cccs1,1.1%,.,4%[15.4 µM],-2%,1.8,-0.1%,.
NC(=O)c1ccc(NC(=O)COC(=O)c2cc([N+](=O)[O-])ccc2N2CCOCC2)cc1,4.5%,.,-1%,15%,-0.4,-2.9%,.
O=C(NCCn1c(C(F)(F)F)nc2ccccc21)[C@H]1CCCN1c1nc(CN2CCCCC2)cs1,-0.7%,14%,?,7%,-1.2,-3.8%,-1.3
Cc1nc(C)n(C(C)CNC(=O)c2ccco2)n1 (stereo unspecified),-0.5%,13%,-12%[15.4 µM],4%,3.5,-1.4%,3.9
